Bioassay records: PubChem BioAssay, several laboratories
Vif TR-FRET: inhibitors of Vif binding to APOBEC3G peptide, primary screen, biochemical, TR-FRET, GST-Vif 1-94, biotin-A3G peptide, dose response retest (AID 1117319). Virion infectivity factor (Human immunodeficiency virus type 1 group M subtype B (isolate …. TR-FRET GST-Vif / biotin-A3G peptide binding; higher % means a stronger effect; test concentration not given here; strong numbers were not always called active. one-dose inhibition, %; IC50 in µM for titrated hits. actives 0.57% (n = 260,000);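 active means above the screen mean plus three standard deviations and confirmed in dose response; inconclusive means results disagree or hit not tested in dose response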;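 further: Vif residues 1-94 fused to GST binding biotinylated APOBEC3G peptide 110-148; 0% = full assay without inhibitor and 100% = GST in place of GST-Vif; retest series ran down from 100 µM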
HNF4A DNA FP: change in binding of human HNF4A to DNA, primary screen, biochemical, fluorescence polarization, FITC-DNA | 1 h | activity change, % at 10 µM | actives 0.3% (n = 360,000); in the data active means activity change above about 30%, passing the limit was not always enough;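 further: controls were the assay level and a saturating level of protein; the project sought stronger binding though the title names inhibitors; some compounds called inactive have numbers as strong as hits; positive values seem to mean higher polarization but the record does not say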
Target sequence (P41235 whole entry, looked up): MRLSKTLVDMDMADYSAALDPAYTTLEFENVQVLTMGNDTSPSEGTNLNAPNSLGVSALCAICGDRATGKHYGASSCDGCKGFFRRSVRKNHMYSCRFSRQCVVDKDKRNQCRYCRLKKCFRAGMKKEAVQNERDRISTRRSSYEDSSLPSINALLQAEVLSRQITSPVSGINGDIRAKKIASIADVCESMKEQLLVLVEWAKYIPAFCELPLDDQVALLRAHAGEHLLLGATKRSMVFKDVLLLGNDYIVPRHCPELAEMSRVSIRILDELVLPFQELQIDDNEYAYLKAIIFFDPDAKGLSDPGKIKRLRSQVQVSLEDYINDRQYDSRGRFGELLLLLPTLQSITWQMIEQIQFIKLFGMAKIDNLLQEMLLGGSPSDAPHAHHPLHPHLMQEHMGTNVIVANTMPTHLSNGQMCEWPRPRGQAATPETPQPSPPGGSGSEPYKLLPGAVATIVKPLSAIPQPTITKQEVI
LANA-H2A inh: blockers of LANA interaction with H2A/H2B – biochemical, FP readout, HTS, primary screen; cell-free LANA-H2A/H2B peptide, fluorescence polarization; inhibition, % (no concentration beside the values); actives 0.6% (n = 320,000); AID 2629, 2010; in the data active means inhibition mostly above about 10%, no sharp cut-off; inactive means mostly below about 6.7%;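 further: stock transfer was 7.5 nL into about 10 µL; 0% = median of vehicle wells and 100% = median of positive control wells; one replicate is shown; the record names a cut of 25% in any replicate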
Beta2AR agonist: beta2AR agonists driving receptor internalization, primary screen, cell-based, FAP fluorogen, flow cytometry; Am2.2-beta2AR cells; reference of the scale not given here; response, % (concentration not given with the values); actives 0.43% (n = 340,000); AID 504454, 2011;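 active means response above a set limit, near 3 SD of response in nonfluorescent compounds, cut at about 42% in these data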;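 further: stock transfer was 100 nL into about 11 µL; a reference agonist was the positive control; negative values mostly stem from fluorescent compounds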
UCH37 DUB inh: inhibitors of human UCH37 deubiquitinase, primary screen, biochemical, Ub-AMC cleavage, fluorescence; purified proteasome/UCH37; inhibition, % (concentration not given with the values); AID 588478, 2011; Ubiquitin carboxyl-terminal hydrolase isozyme L5 (Homo sapiens), Q9Y5K5; actives 0.33% (n = 330,000);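 active means mean of two replicates above 20%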;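 further: 0% = compound-free wells with enzyme and 100% = wells lacking proteasome; stock transfer was 100 nL into about 20 µL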
Target sequence (Q9Y5K5 whole entry, looked up): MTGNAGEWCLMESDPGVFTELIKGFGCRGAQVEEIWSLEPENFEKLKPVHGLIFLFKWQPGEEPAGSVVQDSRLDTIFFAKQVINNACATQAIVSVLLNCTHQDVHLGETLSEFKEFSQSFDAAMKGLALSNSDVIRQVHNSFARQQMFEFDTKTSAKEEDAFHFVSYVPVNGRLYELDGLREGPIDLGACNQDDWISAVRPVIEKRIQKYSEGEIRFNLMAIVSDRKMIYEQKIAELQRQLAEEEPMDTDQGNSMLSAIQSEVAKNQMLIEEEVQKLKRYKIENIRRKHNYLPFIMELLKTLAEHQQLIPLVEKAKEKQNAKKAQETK
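system = Proteasome-associated human UCH37 deubiquitinase | amount = 0.15 nM proteasome as dispensed | medium = pH 7.4 Tris-HCl (50 mM) with ovalbumin, ATP-MgCl2, DTT | incubation = 30 min preincubation with enzyme, 25 min cleavage at room temperature | detection = AMC fluorescence 355/460 nm | read-out basis = percent inhibition | controls = no-proteasome and no-compound wells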
A1 inh: caspase 3/7 activation in MEF A1-2A-BIM cells, primary screen, A1 inhibitor project, cell-based, luminescence, HTS; AID 2462, 2010; Caspase-Glo 3/7 luminescence, 3 h; percent of clofoctol response, vehicle zero; caspase activation, % (no concentration beside the values); actives 0.066% (n = 330,000);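 active means over half of replicate activation scores above 10%, or exactly half above 10 with the replicate mean above 10; inconclusive means replicate mean below 10 yet half the replicates above 10; inactive means over half of replicates below 10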;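 further: wells of about 30 µL received 50 nL stock; many hits fall short of the cut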
Ecoli growth: E. coli growth inhibition, primary screen, OD600; Escherichia coli growth, 23 h; stronger effect = lower value; OD600 absorbance (test concentration not listed); actives 0.21% (n = 330,000); AID 1053175, 2014;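 active means OD600 absorbance below the run mean of sample wells minus 3.6 SD, in any replicate, cut at about 0.56 in these data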;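 further: stock transfer was 300 nL into about 60 µL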
An asterisk follows results filed as active; & = joins results of further samples. These rows are one share of the data, so the mix of outcomes need not match the whole.

Screening CCCCOC(=O)C1=C(N)OC2=C(C(=O)CCC2)[C@]12C(=O)N(C)c1ccccc12 returned Vif TR-FRET -3%, HNF4A DNA FP -1.7, LANA-H2A inh 1.3, Beta2AR agonist 11, UCH37 DUB inh 0.5, A1 inh -0.2 and Ecoli growth 0.71.
For O=CC(Cl)P(=O)(N1CCCCC1)N1CCCCC1 (centres undefined) the results were Vif TR-FRET inconclusive, HNF4A DNA FP 2.5, LANA-H2A inh -2.4, Beta2AR agonist 5, UCH37 DUB inh 1.1, A1 inh -0.3 and Ecoli growth 0.72.
`C[C@]12CCC(=O)C(O)=C1CC[C@@H]1[C@@H]2CC[C@]2(C)C(=O)CC[C@@H]12` gave Vif TR-FRET 21%, HNF4A DNA FP -1.9, LANA-H2A inh 14&-3.6, Beta2AR agonist -3, UCH37 DUB inh 0.8 and A1 inh 0.7.
For Cc1cc(OCC(=O)NCC(O)c2ccccc2)c2c3c(c(=O)oc2c1)CCC3 (centres undefined) the results were Vif TR-FRET 10%, HNF4A DNA FP 9.4, LANA-H2A inh 3.0, Beta2AR agonist -2, UCH37 DUB inh -126, A1 inh 0.0 and Ecoli growth 0.71.
C[C@]12CC[C@H]3[C@@H](CCC4=CC(=O)CC[C@@H]43)[C@@H]1CC[C@@H]2O was read as HNF4A DNA FP 1.9, Beta2AR agonist 1, UCH37 DUB inh -3.6 and Ecoli growth 0.74.
`COCCN1C(=O)NC(=O)/C(=C\c2ccc(Br)cc2)C1=O` gave Vif TR-FRET 13%, HNF4A DNA FP 0.2, LANA-H2A inh -3.2, Beta2AR agonist 5, UCH37 DUB inh 13, A1 inh 0.0 and Ecoli growth 0.67.
CCC(=O)CC(c1ccccc1)c1c(O)c2ccccc2sc1=O (centres undefined) was read as Vif TR-FRET -1%, HNF4A DNA FP 2.2, LANA-H2A inh -6.4, Beta2AR agonist -3, UCH37 DUB inh 2.5, A1 inh 0.2 and Ecoli growth 0.67.
`Cc1ccc(OCCn2cccc2/C=C2/C(=O)NC(=O)N(Cc3ccco3)C2=O)cc1` gave Vif TR-FRET 15%, HNF4A DNA FP -7.6, LANA-H2A inh 6.7, Beta2AR agonist 9, UCH37 DUB inh 7.2, A1 inh -1.4 and Ecoli growth 0.69.
For Cc1cc(/C=C2\C(=O)NC(=O)N(c3ccc(Cl)cc3)C2=O)c(C)n1C the results were Vif TR-FRET 4%, HNF4A DNA FP -0.9, LANA-H2A inh 6.1, Beta2AR agonist 22, UCH37 DUB inh -5.5, A1 inh 0.1 and Ecoli growth 0.7.
Screening O=c1[nH]c(=O)n(CCC2=CCCCC2)c(O)c1C=NCCCn1ccnc1 returned Vif TR-FRET 7%, HNF4A DNA FP 5.2, LANA-H2A inh -0.8, Beta2AR agonist -3, UCH37 DUB inh 3.1, A1 inh -0.1 and Ecoli growth 0.7.
O=C(O)CCn1cc(C=C2C(=O)NC(=S)NC2=O)c(-c2cc3ccccc3oc2=O)n1 was read as Vif TR-FRET inconclusive, HNF4A DNA FP -2.1, Beta2AR agonist 3, UCH37 DUB inh -7.7 and Ecoli growth 0.66.
For Cc1cc(C=C(C#N)C#N)ccc1N1CCCC1 the results were HNF4A DNA FP 6.5, LANA-H2A inh -8.8, Beta2AR agonist -5, UCH37 DUB inh 1.8, A1 inh 0.4 and Ecoli growth 0.71.
Screening CCCc1nc2ccc(Br)cc2c(=O)n1-c1ccc([N+](=O)[O-])c(C(F)(F)F)c1 returned HNF4A DNA FP -2.8, LANA-H2A inh -1.4, Beta2AR agonist 5, UCH37 DUB inh 5.8, A1 inh -0.2 and Ecoli growth 0.68.
CCc1cccc(C)c1NC(=S)N1CC2CC(C1)c1cccc(=O)n1C2 (centres undefined) was read as Vif TR-FRET 10%, HNF4A DNA FP -3.8, LANA-H2A inh -1.3, Beta2AR agonist 7, UCH37 DUB inh 1.1, A1 inh 0.8 and Ecoli growth 0.64.
For COC(=O)C1=C(c2ccc(Cl)c(C(F)(F)F)c2)C[C@@H]2CC[C@H]1N2C(=O)NC1CC1 the results were HNF4A DNA FP 1.4, LANA-H2A inh -0.5, Beta2AR agonist 0, UCH37 DUB inh 0.5 and A1 inh -0.9.
For OC(COCc1ccc(Cl)cc1)CN1CC=C(c2ccccc2)CC1 (centres undefined) the results were Vif TR-FRET 25%, HNF4A DNA FP -3.1&2.5, LANA-H2A inh -0.2, Beta2AR agonist -1, UCH37 DUB inh -5.2&2.8, A1 inh -0.6 and Ecoli growth 0.66&0.66.
`CC(C)(C)c1cc(C=C(C#N)C#N)cc(C(C)(C)C)c1O` gave HNF4A DNA FP 12, LANA-H2A inh -3.5, Beta2AR agonist 16, UCH37 DUB inh -0.1, A1 inh 0.2 and Ecoli growth 0.6.
Cc1ccc(C2=NCC(=O)N(CC(=O)N3CCCCC3)c3sc(C)c(C)c32)cc1 was read as Vif TR-FRET 1%, HNF4A DNA FP 0.5, LANA-H2A inh 1.6, Beta2AR agonist -1, UCH37 DUB inh 5.7, A1 inh -0.2 and Ecoli growth 0.75.
For CNc1cc(N2CCN(C)CC2)ccc1[N+](=O)[O-] the results were Vif TR-FRET 28%, HNF4A DNA FP -3.9, LANA-H2A inh 10, Beta2AR agonist -1, UCH37 DUB inh 8.1, A1 inh -0.3 and Ecoli growth 0.69.
For Cc1ccc(-n2c(O)c(C=NCCCn3ccnc3)c(=O)[nH]c2=O)cc1 the results were Vif TR-FRET -1%, HNF4A DNA FP -0.3, LANA-H2A inh 13*, Beta2AR agonist 0, UCH37 DUB inh 2.4, A1 inh 0.0 and Ecoli growth 0.69.
Screening Cc1ccc(C)c(-n2c(C)nc3ccccc3c2=O)c1 returned Vif TR-FRET -1%, HNF4A DNA FP 0.1, LANA-H2A inh -6.9, Beta2AR agonist 6, UCH37 DUB inh 3.6, A1 inh 0.9 and Ecoli growth 0.68.
Screening COc1ccc(/C=C/C(=O)c2c(O)n(CCC3=CCCCC3)c(=O)[nH]c2=O)cc1 returned HNF4A DNA FP -1.4, LANA-H2A inh 1.0, Beta2AR agonist 11, UCH37 DUB inh -30, A1 inh -0.2 and Ecoli growth 0.7.
For O=C(Cn1c(=O)n(CC2CS2)c2ccccc21)N1CCCCCC1 (centres undefined) the results were Vif TR-FRET 1%, HNF4A DNA FP 2.1, LANA-H2A inh 1.1, Beta2AR agonist -5, UCH37 DUB inh 0.6, A1 inh 0.5 and Ecoli growth 0.71.
CC(C)CN(C(=O)CN1CC=C(c2ccccc2)CC1)c1c(N)n(CC(C)C)c(=O)[nH]c1=O was read as Vif TR-FRET 0%, HNF4A DNA FP 2.9, LANA-H2A inh 1.8, Beta2AR agonist 0, UCH37 DUB inh 1.6, A1 inh -0.7 and Ecoli growth 0.71.
O=c1[nH]c(O)c(C=Nc2ccc(Cl)c(C(F)(F)F)c2)c(=O)[nH]1 was read as Vif TR-FRET -4%, HNF4A DNA FP 1.6, LANA-H2A inh 4.2, Beta2AR agonist -9, UCH37 DUB inh -0.6, A1 inh -0.8 and Ecoli growth 0.63.
Screening CCOC(=O)C(O)(c1ccc(N(CC)C(=O)OC)cc1)C(F)(F)F (centres undefined) returned Vif TR-FRET 2%, HNF4A DNA FP 3.5, LANA-H2A inh 0.6, Beta2AR agonist 7, UCH37 DUB inh 4.1, A1 inh -0.7 and Ecoli growth 0.69.
For C=CCn1c(O)c(C(=O)CCCCCC)c(=O)[nH]c1=O the results were Vif TR-FRET 8%, HNF4A DNA FP -0.1, LANA-H2A inh 4.9, Beta2AR agonist 11, UCH37 DUB inh 2.8, A1 inh -0.3 and Ecoli growth 0.71.
For C=CCn1c(O)c(C(C)=Nc2ccc(N(CC)CC)cc2)c(=O)[nH]c1=O the results were Vif TR-FRET 30%, HNF4A DNA FP 6.5, LANA-H2A inh -0.3, Beta2AR agonist -10, UCH37 DUB inh 2.1, A1 inh 1.2 and Ecoli growth 0.7.
Screening CC/C(=N\NC(=O)c1ccccc1Cl)c1c(O)n(C2CCCCC2)c(=O)[nH]c1=O returned HNF4A DNA FP -3.7, LANA-H2A inh -4.6, Beta2AR agonist 11, UCH37 DUB inh 13, A1 inh -0.5 and Ecoli growth 0.68.
For CCN1c2nc3c(C)cccn3c(=O)c2CC2(C(=O)N(C)C(=O)N(C)C2=O)C1C (centres undefined) the results were Vif TR-FRET 0%, HNF4A DNA FP -0.6, LANA-H2A inh 0.0, Beta2AR agonist 10, UCH37 DUB inh -2.1, A1 inh 0.1 and Ecoli growth 0.68.
`c1ccc(C2c3ccccc3-n3nncc3CN2CC2CCCCC2)cc1` (centres undefined) gave Vif TR-FRET -5%, HNF4A DNA FP 4.2 and Beta2AR agonist 19.
For CCN(CC)c1ccc(C=C2C(=O)NC(=S)NC2=O)cc1 the results were Vif TR-FRET 6%, HNF4A DNA FP 0.6, LANA-H2A inh 1.0, Beta2AR agonist 51*, UCH37 DUB inh 7.1, A1 inh 0.4 and Ecoli growth 0.63.
Screening COC(=O)C1=C(c2ccc(-c3ccccc3)c(F)c2)C[C@@H]2CC[C@H]1N2C(=O)NCCCOC(C)C returned HNF4A DNA FP 1.4, LANA-H2A inh 1.2, Beta2AR agonist 4, UCH37 DUB inh 1.8 and A1 inh 0.8.
CC1NCCC2(O)CCCCC12 (centres undefined) was read as HNF4A DNA FP 2.8, LANA-H2A inh -1.1, Beta2AR agonist 2, UCH37 DUB inh -3.6, A1 inh -0.2 and Ecoli growth 0.68.
Screening Brc1ccc(C2N3CCCN23)cc1 (centres undefined) returned Vif TR-FRET -5%, HNF4A DNA FP -2.4, LANA-H2A inh 2.4, Beta2AR agonist -3, UCH37 DUB inh 2.5, A1 inh 0.1 and Ecoli growth 0.66.
Cc1ccc(N(C)C(=O)Oc2cccc3ccc(C)nc23)cc1 was read as Vif TR-FRET -4%, HNF4A DNA FP -1.2, LANA-H2A inh -1.3, Beta2AR agonist -5, UCH37 DUB inh -1.0, A1 inh 0.8 and Ecoli growth 0.72.
Screening CCOc1cccc(N2C(=O)/C(=C/c3ccco3)C(=O)NC2=S)c1 returned HNF4A DNA FP -45, LANA-H2A inh -2.6, Beta2AR agonist 12, UCH37 DUB inh 7.2, A1 inh -1.5 and Ecoli growth 0.71.
Screening COc1ccc(Br)cc1CNCCc1cccc(Cl)c1 returned Vif TR-FRET -13%, HNF4A DNA FP 1.0, LANA-H2A inh 0.0, Beta2AR agonist 3, UCH37 DUB inh 2.4, A1 inh 0.1 and Ecoli growth 0.59.
For COc1cc2c(cc1OC)CN(c1ccc([N+](=O)[O-])c(C(F)(F)F)c1)CC2 the results were HNF4A DNA FP -0.7, LANA-H2A inh 5.1, Beta2AR agonist 3, UCH37 DUB inh 0.6, A1 inh 0.4 and Ecoli growth 0.74.
Screening COc1cccc(CC(=O)N(C)C2CCCN(Cc3ccccc3F)C2)c1 (centres undefined) returned Vif TR-FRET 4%, HNF4A DNA FP 0.2, LANA-H2A inh 4.5, Beta2AR agonist -4, UCH37 DUB inh 1.3, A1 inh -0.3 and Ecoli growth 0.66.
